# MbtI inh = MbtI salicylate synthase inhibition | P9WFX0 | purified MbtI enzyme, fluorescence intensity read-out | inhibition, %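 (about 17 µg/mL by stock and volumes)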 | 100,000 tested, 0.89% active | AID 493033;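 active = above 50% in both replicates, above 80% if mildly self-fluorescent; inactive = the rest, strongly fluorescent compounds included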;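 also: 0% = mean of negative and 100% = mean of positive controls; one replicate is shown; some compounds called inactive have numbers as strong as hits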
# Polio RdRp inh = poliovirus RNA polymerase inhibition; poliovirus polymerase elongation, fluorescence polarization; stronger effect = lower value; % elongation, % (compound at 16.7 µg/mL); 150,000 tested, 0.66% active; in the data active = % elongation below about 90%; also: some results filed as inactive read as strong as hits
# Target sequence (P03300 1749-2209 limits assumed): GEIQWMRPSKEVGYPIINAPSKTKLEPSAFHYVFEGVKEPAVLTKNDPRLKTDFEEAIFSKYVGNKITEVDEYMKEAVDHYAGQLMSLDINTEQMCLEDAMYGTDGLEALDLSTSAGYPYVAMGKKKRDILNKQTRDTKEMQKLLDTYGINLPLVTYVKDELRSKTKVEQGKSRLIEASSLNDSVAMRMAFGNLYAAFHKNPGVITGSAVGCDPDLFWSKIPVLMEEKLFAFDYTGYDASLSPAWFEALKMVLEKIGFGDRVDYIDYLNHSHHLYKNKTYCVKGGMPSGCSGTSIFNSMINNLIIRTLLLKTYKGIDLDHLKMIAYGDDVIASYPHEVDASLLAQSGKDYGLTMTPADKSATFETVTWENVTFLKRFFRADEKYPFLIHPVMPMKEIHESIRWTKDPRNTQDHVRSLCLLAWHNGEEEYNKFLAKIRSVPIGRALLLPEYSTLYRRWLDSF
# Mtb MenB inh = inhibitors of Mycobacterium tuberculosis MenB enzyme; 100,000 tested, 0.43% active; MenB enzyme assay, absorbance read-out; some hits fall short of the stated cut; P9WNP5; inhibition, %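 (about 12 µg/mL by stock and volumes)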;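 active = mean of two replicates above 30%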;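 also: 0% = no compound and 100% = wells with inactive enzyme; the first replicate is given; strong numbers were not always called active; inactives centre near -10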
# Target sequence (P9WNP5 whole entry, looked up): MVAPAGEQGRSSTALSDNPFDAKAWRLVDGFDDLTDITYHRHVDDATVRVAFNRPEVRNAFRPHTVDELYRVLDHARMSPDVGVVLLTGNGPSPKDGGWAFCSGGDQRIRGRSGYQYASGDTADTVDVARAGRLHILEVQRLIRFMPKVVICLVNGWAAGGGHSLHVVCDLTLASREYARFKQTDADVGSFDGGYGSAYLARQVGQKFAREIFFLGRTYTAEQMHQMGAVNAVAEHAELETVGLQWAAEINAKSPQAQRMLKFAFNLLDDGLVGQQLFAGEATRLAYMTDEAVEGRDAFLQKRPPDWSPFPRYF
# Polio RdRp inh intensity = also measured in Polio RdRp inh; calls as there; % elongation; measured here: total intensity read-out; formula for this scale not given here;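 total fluorescence in place of polarization; lower means less elongation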
# Active calls of the source: *; x = not tested or not shown; & = joins results of further samples. Rows were taken by chance, and some 1.7% of all compounds hit somewhere here.
SMILES,MbtI inh,Polio RdRp inh,Polio RdRp inh intensity,Mtb MenB inh
Cc1ccnn1CCN,-2.4,106.0,108.0,-54.4
CCOc1ccccc1NC(=O)CNc1cc(F)ccc1C,10.8,100.0,103.0,-5.8
CCOc1ccc(-n2cc(C(=O)NCCOC)c3cc(OC)c(OC)cc3c2=O)cc1,-0.2,101.0,100.0,5.0
CC(C)(C)NC(=O)NC(=O)CN1CCc2ccccc21,2.4,102.0,87.0,-36.3
O=C(NN=C1CCCCC1)c1cccc(N2CCCC2=O)c1,-5.8,98.0,111.0,-63.0
O=C(/C=C/c1c[nH]c2ccccc12)N1CCCCC1,18.1,100.0,103.0,-15.7
CC[N+](C)(CC)CCOC(=O)C1c2ccccc2Oc2ccccc21,-6.2,100.0,103.0,4.4
CC(=O)Nc1sc(=Nc2ccc(C)c(C)c2)n(C(C)=O)c1-c1ccc2c(c1)OCO2,0.2,101.0,101.0,-43.7
CC(C)(C)c1cc(Cc2ccc(O)c(O)c2)cc(C(C)(C)C)c1O,5.2,100.0,103.0,-10.3
COc1cccc(NC(C)C(=O)Nc2ccc(NC(C)=O)cc2)c1 (configuration not stated),18.4,95.0,89.0,-28.0

# An excerpt of these results, bar-delimited.
Structure | MbtI inh | Polio RdRp inh | Polio RdRp inh intensity | Mtb MenB inh
O=C(/C=C/c1c[nH]c2ccccc12)N1CCCCC1 | 18.1 | 100.0 | 103.0 | -15.7
CC[N+](C)(CC)CCOC(=O)C1c2ccccc2Oc2ccccc21 | -6.2 | 100.0 | 103.0 | 4.4

# Additional compounds follow:
SMILES,MbtI inh,Polio RdRp inh,Polio RdRp inh intensity,Mtb MenB inh
Cn1c2ccccc2c2c(C(=O)N3CCN(c4ccccc4)CC3)cn(C3CCCCC3)c(=O)c21,64.0,104.0,101.0,-31.1
COc1cc(CNc2ccccc2)cc(OC)c1OC,x,105.0,104.0,2.9
CCn1c(O)c(C=Nc2ccc(OC)cc2)c(=O)n(CC)c1=S,11.5,x,x,-4.6
O=C(NCc1cccnc1)c1cccc2sc(N3CCCc4ccccc43)nc12,-1.1,103.0,97.0,-37.5
O=C(NCCc1ccccc1)c1ccc(CS(=O)(=O)Cc2ccccc2F)o1,-3.9,103.0,107.0,-9.6
COC(=O)c1cc(NC2c3ccccc3C(=O)N2Cc2ccco2)cc(C(=O)OC)c1 (configuration not stated),-1.9,100.0,103.0,-7.8
COc1cc(NC(=O)c2cccc(Br)c2)nc(OC)n1,x,103.0,110.0,-19.5
CCCCn1c(=O)[nH]c(=O)c2c1nc(COC(=O)C1(Cc3nc4ccccc4s3)CCCC1)n2C,9.8,104.0,100.0,-8.1
CC(C)=CCCC(C)CN1CCN(c2ccc(Cl)cc2)CC1 (configuration not stated),-2.8,100.0,103.0,-6.7
FC(F)(F)c1nc2ccc(Cl)cc2[nH]1,28.2,104.0,105.0,-7.1
CN(C(=O)c1oc(=O)c2ccccc2c1-c1ccccc1)c1ccccc1,0.2,101.0,103.0,-21.0
COC(=O)c1cc(-c2cc(OC)c(OC)c(OC)c2)no1,-31.6,107.0,100.0,-45.1
CC1(C)CC(N2NC(=O)C(Cc3ccccc3)C2=O)CCS1 (configuration not stated),-2.6,101.0,101.0,-15.5
Cc1ccc2c(c1)=C(c1sc(N)nc1O)C(=O)N=2,1.0,99.0,100.0,-30.0
O=C(Nc1ccc(F)cc1)c1cc(=O)[nH]c2ccccc12,-11.8,107.0,100.0,-28.1
O=C(NCCN1CCOCC1)c1c(O)nc2ccccn2c1=O,14.0,103.0,101.0,-20.1
CC(C)C(=O)NCCCc1nc2ccccc2n1C,-7.2,102.0,105.0,-5.6
NC(=O)c1ccc(NC(=O)COC(=O)/C=C/c2ccc(Cl)cc2)cc1,-10.4,102.0,105.0,x
CC(Sc1nnc(N)s1)C(=O)NCCC1=CCCCC1 (configuration not stated),9.1,102.0,109.0,-18.7
CCOC(=O)c1sc2nc(CN3CCCCC3)nc(N3CCCC3)c2c1C,5.0,101.0,99.0,11.8
O=C(COc1cccc(Oc2ccccc2)c1)N1CCN(Cc2ccccc2)CC1,-7.2,106.0,106.0,x
CC(C)CC(C(=O)c1ccccc1)c1ccccc1 (configuration not stated),-14.7,101.0,109.0,-7.4
CC1CCc2onc(C(=O)N(C)c3ccccc3)c2C1 (configuration not stated),-15.1,104.0,103.0,-7.8
COc1ccc(NC(=O)n2ccc(C(=O)N3CCOCC3)n2)cc1,x,105.0,109.0,-21.4
CCC1CCCCN1C(=O)c1cc(-c2ccc(Cl)c(Cl)c2)on1 (configuration not stated),5.1,101.0,107.0,-26.8
O=C1C=CC(=O)N1c1ccc2ccccc2c1,99.6*,98.0,103.0,3.3
O=S(=O)(c1cccc(-c2nnc(SCc3cn4ccsc4n3)n2-c2ccccc2)c1)N1CCCC1,-10.0,98.0,101.0,-5.0
Nc1nc(SCCOc2ccccc2)nc(-c2ccncc2)n1,-17.3,110.0,128.0,-26.7
CCCn1c(N)c(C(=O)CSc2ncn[nH]2)c(=O)n(C)c1=O,-0.1,105.0,110.0,-1.2
O=C(c1ccc(Cl)c(Cl)c1)c1nn2c(nc(=O)c3ccccc32)s1,-2.1,98.0,99.0,-30.6
Cc1ccc2oc(=O)c3cnn(CC(=O)Nc4cc(C)on4)c3c2c1,-0.1,93.0,97.0,-34.3
CCc1ccc(NC(=O)Cn2c(=O)n(C3CCCCC3)c(=O)c3cccnc32)cc1,0.6,105.0,107.0,-17.7
COc1ccc(Cc2nnc(Nc3ccc(Cl)cc3Cl)o2)cc1OC,1.7,101.0,106.0,-3.0
CN1C[C@H](CNC(=O)OCc2ccccc2)C[C@@H]2c3cccc4c3c(cn4C)C[C@H]21,-7.5,98.0,103.0,2.0
Cc1oc(-c2ccccc2)nc1C(=O)N1CCN(c2ccccc2)CC1,2.1,111.0,115.0,-17.5
Cn1c(-c2c(N)n(Cc3ccccc3)c3nc(C#N)c(C#N)nc23)nc2ccccc21,5.2,112.0,118.0,-4.6
NNc1nccc(C(F)(F)F)n1,-4.2,104.0,103.0,-22.2
N#Cc1ccc(/C=N/n2c(-c3ccco3)csc2=Nc2ccccc2)cc1,-2.5,49.0,246.0,-34.5
CS(=O)(=O)N1CCc2cc(C(=O)Cn3nc(C(=O)O)c4ccccc4c3=O)ccc21,-6.3,102.0,107.0,-25.5
Nc1c(C(=O)NC2CC2)c2nc3ccccc3nc2n1Cc1ccccc1,-9.4,119.0,144.0,-31.8
CCOC(=O)/C(C#N)=C/c1sccc1C,-3.2,105.0,99.0,-24.9
CC1(C)CC(=O)C2=C(C1)Nc1ncnn1C2c1ccccc1 (configuration not stated),0.2,101.0,100.0,-3.4
CCOc1ccccc1N1CCN(C(=O)c2cc3c(s2)CCC3)CC1,-3.5,104.0,105.0,x
c1coc(-c2nc3ccc4ccccc4c3c3c2CCCC3)c1,106.1,100.0,105.0,12.8
CC(C)(C)c1cc(NC(=O)c2ccc(C#N)cc2)on1,-10.6,x,x,3.5
CCC1(C)CC(=O)c2c(ccc3oc(C(=O)O)c(C)c23)O1 (configuration not stated),87.0,102.0,103.0,-1.1
Cc1cccc(N=Cc2cccc(O)c2)c1,3.5,98.0,111.0,-52.1
Cc1cc(C)cc(OC(C)C(=O)NCCCn2ccnc2)c1 (configuration not stated),0.8,105.0,103.0,-33.9
COC(=O)c1ccccc1NC(=O)NC1CCCCC1,17.9,103.0,105.0,-5.1
Cn1nc(C(=O)Nc2cc(C(F)(F)F)ccc2N2CCOCC2)c2ccccc2c1=O,7.0,105.0,97.0,-20.3

# Given with bars between the fields: 5 of the compounds above
canonical_smiles | MbtI inh | Polio RdRp inh | Polio RdRp inh intensity | Mtb MenB inh
O=C(Nc1ccc(F)cc1)c1cc(=O)[nH]c2ccccc12 | -11.8 | 107.0 | 100.0 | -28.1
O=C(NCCN1CCOCC1)c1c(O)nc2ccccn2c1=O | 14.0 | 103.0 | 101.0 | -20.1
CC(C)C(=O)NCCCc1nc2ccccc2n1C | -7.2 | 102.0 | 105.0 | -5.6
NC(=O)c1ccc(NC(=O)COC(=O)/C=C/c2ccc(Cl)cc2)cc1 | -10.4 | 102.0 | 105.0 | x
CC(Sc1nnc(N)s1)C(=O)NCCC1=CCCCC1 (configuration not stated) | 9.1 | 102.0 | 109.0 | -18.7

# (list continues)
SMILES,MbtI inh,Polio RdRp inh,Polio RdRp inh intensity,Mtb MenB inh
COc1cc2c(C#N)c(OC)nc(N)c2c(N)n1,101.8,103.0,106.0,-10.9
Cc1cc(C)c(C#N)c(SC(F)F)n1,-14.6,102.0,110.0,-13.5
C/C(=N\NC(=S)Nc1ccccc1C)c1ccc(O)cc1,93.4,75.0*,82.0*,-59.4
O=C(CCCSc1nc2ccccc2[nH]1)NC1=NCCS1,-16.8,103.0,105.0,-1.7
Cc1cc(=O)oc2cc(OC(C)C(=O)Nc3ccccc3)ccc12 (configuration not stated),-46.4,100.0,103.0,-19.6
CC(=O)N(O)CCCCCNC(=O)CCC(=O)N(O)CCCCCNC(=O)CCC(=O)N(O)CCCCCN,-4.3&-14.4,101.0&99.0,102.0&102.0,3.6&9.1
CCOc1ncccc1C(=O)OCC(=O)Nc1ccc(Br)c(C)c1,2.9,100.0,105.0,-17.8
CCN(CCN(C)C)C(=O)Cn1nc(Cc2ccncc2)c2ccccc2c1=O,-1.6,101.0,104.0,1.5
O=C1CCCCCN1CP(=O)(O)CN1CCCCC1,-7.5,104.0,103.0,8.5
Cc1cnc(NC(=O)c2ccccc2C(F)(F)F)s1,-13.6,107.0,108.0,-31.2
Cc1noc(C)c1-c1nnc(-c2cccc(C(F)(F)F)c2)o1,-11.3,100.0,102.0,-4.9
COC(=O)c1c(C)nn(C(=O)c2ccc(Cl)cc2)c1-c1snnc1C,-9.3,102.0,98.0,-14.5
O=C(CSc1nncn1-c1ccccc1)CSc1nncn1-c1ccccc1,-2.3,104.0,109.0,1.3
O=C(CCN1CCN(C(c2ccccc2)c2ccccc2)CC1)N/N=C/c1cccnc1,-8.7,103.0,103.0,-3.1
COc1ccc(C(=O)c2cnc3ccccn23)cc1Cl,0.4,106.0,103.0,-16.9
O=C(Nc1nc2ccccc2[nH]1)C1CCCN(C(=O)c2ccc(Cl)cc2)C1 (configuration not stated),-10.3,103.0,109.0,-17.2
CC(C)c1ccccc1NC(=O)CC(C)(C)C,-9.8,101.0,102.0,-53.4
CCCN(Cc1nnc(-c2ccco2)o1)C(=O)Cc1n[nH]c(=O)c2ccccc12,32.7,108.0,106.0,9.5
S=C(Nc1ccccc1)N1CCC(c2ccccc2)=N1,19.0,100.0,102.0,-29.1
S=C1NCCc2ccccc21,14.4,98.0,103.0,-14.1

# Next part, overlapping the part above by three compounds.
SMILES,MbtI inh,Polio RdRp inh,Polio RdRp inh intensity,Mtb MenB inh
CCCN(Cc1nnc(-c2ccco2)o1)C(=O)Cc1n[nH]c(=O)c2ccccc12,32.7,108.0,106.0,9.5
S=C(Nc1ccccc1)N1CCC(c2ccccc2)=N1,19.0,100.0,102.0,-29.1
S=C1NCCc2ccccc21,14.4,98.0,103.0,-14.1
CC(=O)N1/C(=C/c2ccc(N(C)C)cc2)C(=O)c2ccccc21,-4.0,102.0,98.0,-61.0
O=C(Nc1ccc2nc(SCC(=O)N3CCc4ccccc43)sc2c1)c1ccccc1Cl,x,105.0,105.0,-45.9
CCOC(=O)c1c(C)n(-c2ccc(OC)cc2)c2ccc(OC)cc12,7.0,103.0,99.0,-16.8
COC(=O)C1=C(C)NC(C)=C(C(=O)OC)C1c1cn(-c2ccccc2)nc1-c1ccco1,29.4,101.0,103.0,-4.3
COC(=O)c1ccc(COC(=O)c2cc(-c3ccco3)nc3ccccc23)cc1,60.0,105.0,113.0,-22.7
N#Cc1c(Nc2ccccc2)c(C=NCCN2CCOCC2)c[nH]c1=O,-2.0,102.0,105.0,-12.7
Cc1ccc(-c2noc(CNC(=O)C(c3ccccc3)c3ccccc3)n2)cc1,3.7,104.0,98.0,-11.6
O=C(NCc1ccc2c(c1)OCO2)C1CCN(c2ncccn2)CC1,14.4,103.0,102.0,-32.5
Cc1nc2ccccn2c1-c1nnco1,89.8,101.0,107.0,x
O=c1oc2cc(O)ccc2c(-c2ccccc2)c1-c1ccccc1,x,102.0,190.0,-18.1
CCc1ccc(N2C(=O)C3C4CCCC4=C4CCCC4C3C2=O)cc1 (configuration not stated),9.8,105.0,104.0,-45.0
Cc1ccc(O)c(NC(=O)C2CC(c3ccc(Cl)cc3)=NO2)c1 (configuration not stated),-4.8,101.0,102.0,-34.3
CNC(=S)N(Cc1ccc2c(c1)OCO2)C1CCCC1,3.6,111.0,110.0,9.5
CCOC(=O)c1cc2n(n1)C(C(F)(F)C(F)(F)F)CC(C)N2 (configuration not stated),-6.0,101.0,101.0,8.0
CN(C)C(=O)c1ccc(N(C)S(=O)(=O)c2ccccc2)cc1,-14.2,99.0,104.0,12.8
COCC(C)n1c(COc2ccccc2F)nnc1SCC(C)C (configuration not stated),14.5,107.0,104.0,6.9
Cc1cc(NC(=O)CN2C(=O)S/C(=C\c3ccccc3)C2=O)no1,-1.7,102.0,103.0,-18.6
N=c1nc(N)nc2n1NC(c1ccc(F)cc1)=CS2,-2.5,102.0,99.0,-25.3
CC1(C)C(=O)C2(C(=O)NCc3ccccc3)CCC1C2 (configuration not stated),-4.7,98.0,102.0,-6.7
O=C(O)CN1C(=O)S/C(=C\c2ccccc2)C1=O,3.9,102.0,103.0,-1.0
Sc1cccc2cccnc12,47.2,101.0,209.0,-45.8
Cc1ccc2ccc(C3C(=O)c4cccnc4C3=O)nc2c1 (configuration not stated),x,103.0,110.0,-7.8
Cc1[nH]c(=S)[nH]c(=O)c1Oc1ccccc1,18.4,99.0,98.0,-10.8
